FGF22 binding: shifts melting point of recombinant human FGF22; Q9HCT0; recombinant FGF22 thermal shift, SYPRO orange fluorescence; percent of sucrose octasulfate shift, DMSO zero; calls only at 9.99 µM; 1.5% of 340,000 active; AID 651658;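 active = melting point raised past a set limit in the mean and every replicate; three in four hits are not shown here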
Target sequence (Q9HCT0 whole entry, looked up): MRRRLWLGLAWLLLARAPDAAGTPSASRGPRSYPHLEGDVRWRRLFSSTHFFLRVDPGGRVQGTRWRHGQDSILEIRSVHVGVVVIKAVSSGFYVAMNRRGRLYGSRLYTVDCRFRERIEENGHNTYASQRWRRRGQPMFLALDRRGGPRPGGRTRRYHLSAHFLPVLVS
Calls only; i = inactive; + = active, no number. A portion of the library. The share of hits here may be higher or lower than overall.

Start of the listing, in advance (4 entries):
SMILES | FGF22 binding
C[C@H]1CN([C@@H](C)CO)C(=O)c2cccc(NC(=O)Nc3ccc(F)cc3)c2O[C@@H]1CN(C)S(C)(=O)=O | i
COCC(=O)N(C)C[C@@H]1Oc2ncc(C3=CCCC3)cc2C(=O)N([C@H](C)CO)C[C@H]1C | i
CCCNC(=O)N1C[C@H](C)[C@H](OC)CN(C)C(=O)c2cc(NS(C)(=O)=O)ccc2OC[C@H]1C | i
C[C@H]1CCCCO[C@H](CN(C)C(=O)Nc2ccc(C(F)(F)F)cc2)[C@@H](C)CN([C@@H](C)CO)C(=O)c2cc(NS(=O)(=O)c3ccccc3)ccc2O1 | i

Results (from the top)
SMILES | FGF22 binding
C[C@H]1CN([C@@H](C)CO)C(=O)c2cccc(NC(=O)Nc3ccc(F)cc3)c2O[C@@H]1CN(C)S(C)(=O)=O | i
COCC(=O)N(C)C[C@@H]1Oc2ncc(C3=CCCC3)cc2C(=O)N([C@H](C)CO)C[C@H]1C | i
CCCNC(=O)N1C[C@H](C)[C@H](OC)CN(C)C(=O)c2cc(NS(C)(=O)=O)ccc2OC[C@H]1C | i
C[C@H]1CCCCO[C@H](CN(C)C(=O)Nc2ccc(C(F)(F)F)cc2)[C@@H](C)CN([C@@H](C)CO)C(=O)c2cc(NS(=O)(=O)c3ccccc3)ccc2O1 | i
COc1ccc2c3c(n(C)c2c1)[C@H](CO)N(CC1CCCC1)CC31CCN(Cc2nccs2)CC1 | i
CC(C)NC(=O)N(C)C[C@@H]1Oc2ccc(NC(=O)C3CCCCC3)cc2CC(=O)N([C@H](C)CO)C[C@@H]1C | i
CCCCNC(=O)c1ccc(C#CC(C)(C)C)c(OC(C)=O)c1 | i
COc1ccc(NC(=O)N2CCCCN3[C@@H](CO)[C@@H](c4ccc(-c5ccccc5F)cc4)[C@@H]3C2)cc1 | i
Cc1ccc(S(=O)(=O)Nc2ccc3c(c2)C(=O)N([C@H](C)CO)C[C@H](C)[C@@H](CN(C)Cc2ccc4c(c2)OCO4)OCCCC[C@@H](C)O3)cc1 | i
C[C@@H]1CN([C@H](C)CO)S(=O)(=O)c2ccc(-c3ccc(F)cc3)cc2O[C@@H]1CN(C)C(=O)Nc1ccccc1F | +
C[C@@H]1CCCCO[C@@H](CN(C)C(=O)Cc2ccccc2)[C@H](C)CN([C@H](C)CO)C(=O)c2cc(NS(=O)(=O)c3cn(C)cn3)ccc2O1 | i
C[C@@H]1CN([C@@H](C)CO)S(=O)(=O)c2ccc(-c3cccc(C#N)c3)cc2O[C@@H]1CN(C)C(=O)c1ccncc1 | i
O=C(Cc1ccccc1)N[C@@H]1CC[C@@H](CC(=O)N2CCCCC2)O[C@H]1CO | i
CN1c2ccc(C#Cc3cccnc3)cc2[C@@H]2[C@@H](CCN2C(=O)Cc2cccnc2)[C@H]1CO | i
C[C@H]1CN([C@@H](C)CO)C(=O)Cc2cc(NC(=O)Cc3ccccc3)ccc2O[C@H]1CN(C)S(=O)(=O)c1ccc(F)cc1 | i
CO[C@@H]1CN(C)C(=O)c2ccc(NS(=O)(=O)CC(F)(F)F)cc2OC[C@H](C)NC[C@@H]1C | i
CO[C@@H]1CN(C)C(=O)c2ccc(NC(C)=O)cc2OC[C@@H](C)N(Cc2cccc(F)c2)C[C@H]1C | i
N#Cc1ccc(-c2ccc3c(c2)[C@H]2[C@H](CCN2Cc2ccc4c(c2)OCO4)[C@@H](CO)N3)cc1 | i
COC(=O)N(C)C[C@@H]1OCc2ccccc2-c2ccccc2C(=O)N([C@@H](C)CO)C[C@@H]1C | i
C[C@@H]1CN([C@H](C)CO)C(=O)c2ccccc2-c2ccccc2CO[C@@H]1CN(C)S(=O)(=O)c1cn(C)cn1 | i
O=C(c1ccc2c(c1)OCO2)N1CC[C@@H]2[C@H](CO)Nc3ccc(-c4ccccc4)cc3[C@@H]21 | i
Cc1noc(C)c1NC(=O)N(C)C[C@@H]1Oc2ccc(NS(=O)(=O)c3cn(C)cn3)cc2C(=O)N([C@@H](C)CO)C[C@@H]1C | i
COc1ccc(NC(=O)N(C)C[C@@H]2OCCCC[C@H](C)Oc3ccc(NS(=O)(=O)c4cccs4)cc3C(=O)N([C@H](C)CO)C[C@H]2C)cc1 | i
CCS(=O)(=O)Nc1ccc2c(c1)C(=O)N(C)C[C@@H](OC)[C@H](C)CN(C(=O)NC(C)C)[C@H](C)CO2 | i
O=C(Nc1cccc(F)c1)N1CCCCN2[C@H](C1)[C@H](c1ccc(-c3ccccc3F)cc1)[C@@H]2CO | i
COc1ccc(NC(=O)N(C)C[C@H]2OCCCC[C@@H](C)Oc3ccc(N(C)C)cc3C(=O)N([C@@H](C)CO)C[C@@H]2C)cc1 | i
C[C@@H]1CN([C@@H](C)CO)S(=O)(=O)c2ccc(-c3ccc(C(=O)N(C)C)cc3)cc2O[C@@H]1CN(C)C(=O)Cc1ccccn1 | i
C[C@H](O)C#Cc1cnc2c(c1)C(=O)N([C@H](C)CO)C[C@@H](C)[C@H](CN(C)Cc1cncnc1)O2 | i
C[C@H]1CN([C@@H](C)CO)C(=O)Cc2cc(NC(=O)CCCCCC(=O)Nc3ccccc3N)ccc2O[C@@H]1CN(C)Cc1ccc(-c2ccccc2)cc1 | i
C[C@@H]1CN([C@@H](C)CO)C(=O)c2cc(NC(=O)c3ccccc3)ccc2O[C@@H](C)CCCCO[C@@H]1CN(C)C(=O)C1CCCCC1 | i
CC(C)CC#Cc1ccc2c(c1)O[C@H](CN(C)C(=O)C1CCCCC1)[C@@H](C)CN([C@H](C)CO)S2(=O)=O | i
C[C@@H]1CN([C@H](C)CO)C(=O)c2cc(NC(=O)CCC(F)(F)F)ccc2O[C@H]1CN(C)C(=O)Nc1ccc(F)cc1 | i
CO[C@@H]1CN(C)C(=O)c2cc(NS(=O)(=O)c3ccc(Cl)cc3)ccc2OC[C@H](C)NC[C@@H]1C | i
Cc1ccc(S(=O)(=O)N(C)C[C@@H]2OCCCC[C@H](C)Oc3ccc(NS(=O)(=O)c4ccc(F)cc4)cc3C(=O)N([C@H](C)CO)C[C@@H]2C)cc1 | i
C[C@@H]1CN([C@H](C)CO)C(=O)Cc2cc(NC(=O)NC3CCCCC3)ccc2O[C@H]1CN(C)C(=O)Nc1ccc(C(F)(F)F)cc1 | i
CCCNC(=O)C[C@H]1CC[C@@H]2[C@H](COc3ccc(NC(=O)Nc4c(C)noc4C)cc3C(=O)N2C)O1 | i

Laid out differently: results already given
SMILES	FGF22 binding
C[C@H](O)C#Cc1cnc2c(c1)C(=O)N([C@H](C)CO)C[C@@H](C)[C@H](CN(C)Cc1cncnc1)O2	i
Cc1ccc(S(=O)(=O)N(C)C[C@@H]2OCCCC[C@H](C)Oc3ccc(NS(=O)(=O)c4ccc(F)cc4)cc3C(=O)N([C@H](C)CO)C[C@@H]2C)cc1	i
CC(C)CC#Cc1ccc2c(c1)O[C@H](CN(C)C(=O)C1CCCCC1)[C@@H](C)CN([C@H](C)CO)S2(=O)=O	i
C[C@H]1CN([C@@H](C)CO)C(=O)Cc2cc(NC(=O)CCCCCC(=O)Nc3ccccc3N)ccc2O[C@@H]1CN(C)Cc1ccc(-c2ccccc2)cc1	i
C[C@@H]1CN([C@H](C)CO)C(=O)Cc2cc(NC(=O)NC3CCCCC3)ccc2O[C@H]1CN(C)C(=O)Nc1ccc(C(F)(F)F)cc1	i

The listing continues:
SMILES | FGF22 binding
C[C@@H]1CN([C@@H](C)CO)C(=O)c2cc(NC(=O)Nc3ccccc3)ccc2O[C@@H](C)CCCCO[C@H]1CN(C)S(=O)(=O)c1ccc(Cl)cc1 | i
O=C(C[C@@H]1C[C@H]2c3cc(NC(=O)c4ccc5c(c4)OCO5)ccc3O[C@H]2[C@H](CO)O1)NCc1cccc(F)c1 | i
COc1ccc(NC(=O)Nc2ccc3c(c2)CC(=O)N([C@H](C)CO)C[C@H](C)[C@H](CN(C)Cc2ccc(-c4ccccc4)cc2)O3)cc1 | i
O=C(C[C@@H]1CC[C@@H]2NC[C@@H](O)COC[C@H]2O1)Nc1ccccc1 | i
Cc1noc(C)c1NC(=O)Nc1ccc2c(c1)CC(=O)N([C@H](C)CO)C[C@H](C)[C@H](CN(C)Cc1ccncc1)O2 | i
O=C(C[C@@H]1C[C@H]2c3cc(NC(=O)C4CCC4)ccc3O[C@H]2[C@H](CO)O1)NCc1cccnc1 | i
CO[C@@H]1CN(C)C(=O)c2cc(NC(=O)C3CCCC3)ccc2OC[C@@H](C)N(Cc2nccs2)C[C@H]1C | i
CC(C)NC(=O)N[C@H]1CC[C@H](CC(=O)NCCN2CCCC2)O[C@H]1CO | i
CCCN(C)C[C@H]1Oc2cc(C#Cc3ccccc3F)ccc2S(=O)(=O)N([C@H](C)CO)C[C@H]1C | i
CCCN1[C@@H]2Cn3c(ccc(-c4ccccc4)c3=O)[C@H]1[C@@H](C(=O)NCCCN1CCOCC1)[C@@H]2CO | i
C[C@@H](NC(=O)C[C@H]1C[C@@H]2c3cc(NS(C)(=O)=O)ccc3O[C@@H]2[C@@H](CO)O1)c1ccccc1 | i
C[C@H]1CN([C@@H](C)CO)C(=O)Cc2cc(NC(=O)c3ccncc3)ccc2O[C@H]1CN(C)S(=O)(=O)c1cn(C)cn1 | i
C[C@H](CO)N1C[C@H](C)[C@H](CN(C)Cc2ccc(C(F)(F)F)cc2)Oc2c(NC(=O)Nc3ccc4c(c3)OCO4)cccc2C1=O | i
C[C@H]1CN([C@@H](C)CO)C(=O)Cc2cc(NC(=O)C3CCCCC3)ccc2O[C@@H]1CN(C)S(=O)(=O)c1ccc(F)cc1 | i
C[C@@H]1CN([C@@H](C)CO)C(=O)c2cc(NC(=O)NC3CCCCC3)ccc2O[C@@H](C)CCCCO[C@H]1CN(C)C | i
C[C@H](CO)N1C[C@H](C)[C@@H](CN(C)C(=O)C2CCCCC2)Oc2cc(-c3cncnc3)ccc2S1(=O)=O | i
COCC(=O)N1C[C@@H](C)[C@H](OC)CN(C)C(=O)c2cc(NC(=O)c3cc(C)on3)ccc2OC[C@H]1C | i
Cc1ccc(S(=O)(=O)Nc2ccc3c(c2)C(=O)N([C@@H](C)CO)C[C@@H](C)[C@H](CN(C)C(=O)Nc2c(C)noc2C)O3)cc1 | i
CN(C)CC(=O)N[C@H]1CC[C@H](CC(=O)NCCN2CCCCC2)O[C@H]1CO | i
COC(=O)[C@]12C[C@H](CC(=O)N3CCN(C(=O)C4CC4)CC3)C(=O)N(Cc3ccccc3)C1=C[C@H](C1CCCC1)O[C@@H]2C | i
COc1ccc(-c2cnc3c(c2)C(=O)N([C@H](C)CO)C[C@H](C)[C@H](CN(C)Cc2ccc4c(c2)OCO4)O3)cc1 | i
CO[C@@H]1CN(C)C(=O)c2cc(NS(=O)(=O)CC(F)(F)F)ccc2OC[C@H](C)N(Cc2ccccn2)C[C@H]1C | i
N#C[C@@H]1[C@@H](c2ccccc2C2=CCCC2)[C@H](CO)N1C(=O)Cc1ccncc1 | i
CO[C@@H]1CN(C)C(=O)c2ccc(NS(C)(=O)=O)cc2OC[C@H](C)N(CC2CCOCC2)C[C@@H]1C | i
CC(C)NC(=O)Nc1ccc2c(c1)CC(=O)N([C@H](C)CO)C[C@H](C)[C@@H](CN(C)Cc1ccc(Oc3ccccc3)cc1)O2 | i
COc1ccccc1C#Cc1ccc2c(c1)O[C@@H](CN(C)Cc1cncnc1)[C@H](C)CN([C@@H](C)CO)S2(=O)=O | i
O=C(C[C@H]1CC[C@H]2[C@@H](COC[C@@H](O)CN2C(=O)c2ccncc2)O1)Nc1ccc(-c2ccccc2)cc1 | i
Cc1ccc(S(=O)(=O)Nc2ccc3c(c2)CC(=O)N([C@H](C)CO)C[C@@H](C)[C@H](CN(C)C(=O)Nc2c(C)noc2C)O3)cc1 | i
C[C@@H]1CN([C@H](C)CO)C(=O)Cc2cc(NC(=O)Cn3cnnn3)ccc2O[C@@H]1CN(C)Cc1ccccc1 | i
COC(=O)N(C)C[C@@H]1OCc2ccccc2-c2ccccc2C(=O)N([C@@H](C)CO)C[C@H]1C | i
CCC(=O)N(C)C[C@@H]1Oc2ncc(-c3ccccc3OC)cc2C(=O)N([C@@H](C)CO)C[C@@H]1C | i
C[C@@H]1CN([C@@H](C)CO)C(=O)Cc2cc(NC(=O)CCCCCC(=O)Nc3ccccc3N)ccc2O[C@H]1CN(C)S(=O)(=O)c1cccs1 | i
O=C1O[C@@H](c2ccccc2)[C@@H](c2ccccc2)N2[C@@H](c3ccccc3OCCO)[C@]3(C(=O)Nc4ccc(C#CCCO)cc43)[C@@H](C(=O)N3CCN(c4ncccn4)CC3)[C@H]12 | i
O=C(NCc1ccccc1)[C@@H]1[C@@H](CO)[C@@H]2Cn3c(cccc3=O)[C@H]1N2 | i
C[C@H](CO)N1C[C@H](C)[C@@H](CN(C)C(=O)[C@H](Cc2ccccc2)N(C)C)OCc2ccccc2-c2ccccc2C1=O | i
Cc1ccccc1-c1cnc2c(c1)C(=O)N([C@H](C)CO)C[C@H](C)[C@H](CN(C)C(=O)c1ccncc1)O2 | i
COCC(=O)Nc1ccc2c(c1)C(=O)N(C)C[C@H](OC)[C@@H](C)CN(C(=O)c1ccncc1)[C@@H](C)CO2 | i
C[C@@H]1CN([C@@H](C)CO)C(=O)c2cc(NS(=O)(=O)c3ccc(Cl)cc3)ccc2O[C@@H]1CN(C)Cc1ccc(Oc2ccccc2)cc1 | i
COc1ccc(CN(C)C[C@@H]2OCCCC[C@@H](C)Oc3ccc(NC(=O)CCC(F)(F)F)cc3C(=O)N([C@H](C)CO)C[C@H]2C)cc1 | i
O=C(Cc1cn(Cc2ccccc2)c2ccccc12)Nc1ccc(Nc2cccnc2)cc1 | i
C[C@@H]1CCCCO[C@@H](CN(C)C(=O)Nc2ccc3c(c2)OCO3)[C@H](C)CN([C@H](C)CO)C(=O)c2cc(NC(=O)Nc3ccc(F)cc3)ccc2O1 | i
COc1ccc2c3c(n(C)c2c1)[C@H](CO)N(CC1CC1)CC31CCN(S(=O)(=O)c2cn(C)cn2)CC1 | i
CO[C@H]1CN(C)C(=O)c2cc(NS(=O)(=O)c3ccc(C)cc3)ccc2OC[C@@H](C)NC[C@@H]1C | i
COCC(=O)Nc1ccc2c(c1)OC[C@H](C)N(Cc1ccncc1)C[C@H](C)[C@@H](OC)CN(C)C2=O | i
COc1ccc(-c2cnc3c(c2)C(=O)N([C@@H](C)CO)C[C@@H](C)[C@H](CN(C)C(=O)Cc2ccccc2)O3)cc1 | i
